# YopH inh – blocks Yersinia enterocolitica YopH tyrosine phosphatase | fluorescence Ex485/Em525 | inhibition, %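 (about 10 µM by stock and volumes)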 | 0.16% of 140,000 active | AID 898;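 active = inhibition of 50% or more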;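 also: controls were vehicle for no effect and minimum signal wells for full effect; inactives centre near -20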
# Mtb bLac sens – beta-lactam sensitization of Mtb H37Rv; M. tuberculosis H37Rv growth with meropenem, percent inhibition; hits of this screen are not shown here; inhibition, % at 25 µM; 0.27% of 330,000 active; AID 434955;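 active = about 74% or more and at least 40 points above the plate without the antibiotic, then above 30% in a dose series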;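 also: growth measured after seven days incubation then overnight dye step; 0% = bacteria only wells and 100% = bacteria with antibiotic; twin plates without the antibiotic show which effects depend on it; some results filed as inactive read as strong as hits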
# RecA intein inh – Mtb RecA intein splicing inhibition | cell-free RecA intein splicing, fluorescence | inhibition, %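 (about 9 µM by stock and volumes)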 | 0.75% of 290,000 active; in the data active = inhibition above about 30%;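 also: 0% = vehicle wells and 100% = reference inhibitor control wells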
# Target sequence (P9WHJ3 whole entry, looked up): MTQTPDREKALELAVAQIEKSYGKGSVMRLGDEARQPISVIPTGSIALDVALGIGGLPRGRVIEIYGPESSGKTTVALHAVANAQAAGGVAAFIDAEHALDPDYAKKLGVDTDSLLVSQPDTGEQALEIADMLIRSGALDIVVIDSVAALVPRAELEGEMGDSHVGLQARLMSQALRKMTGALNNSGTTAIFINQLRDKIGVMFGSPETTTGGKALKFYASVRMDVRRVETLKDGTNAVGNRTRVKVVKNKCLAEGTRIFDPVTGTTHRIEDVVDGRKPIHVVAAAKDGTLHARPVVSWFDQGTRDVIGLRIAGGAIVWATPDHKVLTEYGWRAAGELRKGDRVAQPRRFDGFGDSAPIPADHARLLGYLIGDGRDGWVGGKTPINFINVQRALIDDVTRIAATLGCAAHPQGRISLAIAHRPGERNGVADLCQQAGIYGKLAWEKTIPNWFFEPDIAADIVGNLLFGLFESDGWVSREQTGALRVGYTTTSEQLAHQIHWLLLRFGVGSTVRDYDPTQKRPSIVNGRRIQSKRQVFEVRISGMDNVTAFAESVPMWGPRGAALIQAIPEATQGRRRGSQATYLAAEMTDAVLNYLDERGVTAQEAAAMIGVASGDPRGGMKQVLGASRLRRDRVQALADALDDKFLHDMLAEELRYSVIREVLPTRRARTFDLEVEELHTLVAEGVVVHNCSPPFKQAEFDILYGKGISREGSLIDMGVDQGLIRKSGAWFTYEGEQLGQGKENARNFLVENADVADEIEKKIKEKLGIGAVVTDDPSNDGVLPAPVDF
# Arbovirus inh – antivirals against arbovirus infection. arbovirus infection cell-based antiviral screen. inhibition, % at 10 µM. 0.37% of 200,000 active;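 active = inhibition from about 30%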;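 also: bluetongue infection of BSR cells; cell survival read as ATP light after 72 h; 0% = infected wells without compound and 100% = uninfected wells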
# Mtb growth – M. tuberculosis H37Rv growth inhibitors, H37Rv strain (AID 1626); M. tuberculosis H37Rv growth inhibition; higher % means a stronger effect; 0.95% of 220,000 active; inhibition, % at 10 µM, or IC50 in µM where a hit was titrated;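 active = confirmed in a dose series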;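 also: bacteria incubated seven days before Alamar blue readout; 0% = bacteria only wells and 100% = bacteria with antibiotic wells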
# Arbovirus inh repeat – second read-out of Arbovirus inh, no call of its own (marks repeat the call); inhibition, %; measured here: 10K subset replicate screen; many hits read low in the repeat;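 first of two repeat runs on a subset; 0% = infected and 100% = uninfected wells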
# Starred values were filed as active, the others as inactive; / = not tested or not shown.
SMILES,YopH inh,Mtb bLac sens,RecA intein inh,Arbovirus inh,Mtb growth,others
COC(=O)C[C@H]1c2ccc(C(F)(F)F)cc2S(=O)(=O)N1Cc1ccccc1,/,-10,-1.6,/,0%,
Cc1cc(=S)[nH]c2ccccc12,43,0,1.6,-3,/,
CCC(C)N(C(=O)COC(=O)/C=C/c1ccc(O)c(OC)c1)C1CCS(=O)(=O)C1 (configuration not stated),-24,-10,-6.4,-10,7%,
O=C(Nc1cccc(F)c1)N(Cc1ccc(Cl)cc1)CC(O)C(F)(F)F (configuration not stated),-34,12,7.1,-45,14%,
Cc1cc(C)nc(SCc2cc(=O)c(OC(=O)c3ccco3)co2)n1,-31,0,1.4,0,1%,
COc1ccc(NC(=O)c2c(OC)cccc2OC)c(OC)c1,-23,91,16,-6,16%,
COc1ccc(Nc2nc(-c3ccc(OC)cc3)c(CCC(=O)O)s2)cc1,/,9,-4.4,/,5%,
CCOc1ccccc1NC(=O)c1ccc(NC(=O)c2ccco2)cc1,-23,89,1.8,-13,8%,
O=C(COC(=O)c1cccc(Cl)c1)Nc1ccc2[nH]c(=O)[nH]c2c1,/,-9,-2.1,/,/,
CCOC(=O)c1cc(NC(=O)Nc2ccccc2Cl)c(C)nc1C,/,-1,-1.8,-5,1%,
COc1ccc(CS(=O)(=O)c2nc(C)cc(C)c2S(C)(=O)=O)cc1,/,-4,-0.1,-3,-2%,
Cc1cc(C)c(C#N)c(Nc2ccc(F)cc2)n1,/,-1,-2.4,/,/,
CCOC(=O)c1cc(-c2ccccc2)sc1NC(=O)C(C)OC(=O)c1cccnc1Cl (configuration not stated),-26,3,0.6,-5,6%,
Cc1ccc(NCc2nnc(SCC(=O)O)n2Cc2ccccc2)cc1Cl,/,-8,3.0,4,-8%,
O=C(Nc1ccc(Cl)c(Cl)c1)N1CC=C(c2ccccc2)CC1,-6,86,-3.3,-17,12%,
COc1ccccc1NC(=O)c1ccc([N+](=O)[O-])o1,/,100,-6.9,/,/,
COc1ccc(NC(=O)CN2CC=C(c3ccccc3)CC2)cc1S(=O)(=O)N1CCOCC1,/,-4,0.2,20,3%,
O=C(NN=C1CCCC1)c1n[nH]c2c1CCC2,/,1,-1.2,-2,-12%,
CCC(=O)N1CCCc2cc(S(=O)(=O)N3CCN(C4CCCCC4)CC3)ccc21,/,1,0.6,9,4%,
CCSc1nnc(NC(=O)Cc2cc(OC)c(OC)c(OC)c2)s1,/,-10,-2.7,21,4%,
Cc1cccc(NC(=O)N2CCC(NC(=O)c3ccccc3C)CC2)c1,-41,-1,/,-3,-9%,
Cc1ccc(NC(=O)c2c(C(F)(F)F)nn(C)c2SCc2cccc(C(F)(F)F)c2)cc1C,-4,-7,-0.5,5,4%,
CN(C)S(=O)(=O)c1cccc(C(=O)OCC(=O)Nc2sccc2C(N)=O)c1,-36,2,-1.6,6,-5%,
COC(=O)c1ccc2ccn(CC(=O)NC3CCCCC3)c2c1,-86,-1,1.9,-4,0%,
C/C(=N\Nc1cccc2cccnc12)c1ccc[nH]1,/,5,9.4,2,6%,
Oc1cc(Cc2ccccc2)cnc1CN1CCCCC1,-38,1,0.6,11,1%,Arbovirus inh repeat=12
c1ccc(-c2ncnc3nc4n(c23)CCC4)cc1,-26,0,-0.4,2,-10%,
COc1cccc(CN(C)C(=O)c2ccc(S(=O)(=O)N3CCCC3)cc2)c1OC,-41,-5,3.6,5,-7%,
Cc1nccn1-c1ccc(C(F)(F)F)cc1[N+](=O)[O-],/,-2,-4.2,17,2%,
O=C(Nc1cc(F)c(Br)cc1F)c1ccc(Cl)cc1,/,-3,-0.5,/,5%,
CN(C)S(=O)(=O)c1ccc(N2CCCC2)c(C(=O)Nc2ccc(F)cc2F)c1,/,-14,4.0,/,/,
COc1ccc(C(=O)C2CCCN(C(=O)c3ccoc3C)C2)cc1F (configuration not stated),/,2,-4.1,/,5%,
COc1cc2c(c(OC)c1OC)CCc1cnoc1-2,/,-2,1.4,/,-6%,
CCS(=O)(=O)c1nc(S(=O)(=O)c2ccc(C)cc2)c(NCCN2CCOCC2)s1,/,-5,11,/,/,
COc1ccc(Cl)cc1C(=O)OCC(=O)NC(=O)c1cccn1C,-22,-1,-1.1,1,-10%,
Cc1ccccc1NC(=O)c1sc2nc[nH]c(=O)c2c1C,5,-1,-1.4,-1,-9%,
NC(=O)CSc1nc2cc([N+](=O)[O-])ccc2n1-c1cccc(C(F)(F)F)c1,-9,-6,0.6,-21,7%,
CCOC(=O)N1CCN(C(=O)c2cc3cc(C)ccc3[nH]2)CC1,/,0,-1.3,/,/,
CCOC(=O)NC(=O)COC(=O)c1ccc(Sc2ncn[nH]2)c([N+](=O)[O-])c1,/,-1,/,17,-2%,
Cc1nc2cc(Cl)c(Cl)cc2nc1C,-32,0,8.7,3,-8%,
Cc1cccc(NC(=O)C2CCCN2S(=O)(=O)c2ccc(Cl)cc2)n1 (configuration not stated),/,-10,-0.3,/,/,
O=C(COc1ccc(Cl)cc1Cl)NC(=O)c1ccccc1,/,0,3.1,/,/,
O=c1c(F)cn(C2CCCO2)c(=O)n1Cc1c(F)cccc1Cl (configuration not stated),-13,7,-1.1,-2,-6%,
O=C(c1ccc2c(=O)n3c(nc2c1)CCCCC3)N1CCN(c2ccc(F)cc2)CC1,/,0,-1.1,/,8%,
O=C(Oc1cccc(Br)c1)c1cccnc1,-44,21,4.7,8,13%,
O=C(O)c1cccc(Cn2c(Cl)c(/C=N/NC(=O)c3ccccc3)sc2=O)c1,-11,0,2.3,16,-1%,
O=C(CC1C(=O)NCCN1CC(c1ccccc1)c1ccccc1)NCC1CCOCC1 (configuration not stated),/,-1,-3.2,/,/,
CC1CCCC2(C1)NC(=S)N(c1ccccc1)N2 (configuration not stated),-23,86,4.1,-39,14%,

# Sorted by heavy-atom count (ascending): some entries from above
SMILES,YopH inh,Mtb bLac sens,RecA intein inh,Arbovirus inh,Mtb growth,others
O=C(Oc1cccc(Br)c1)c1cccnc1,-44,21,4.7,8,13%,
O=c1c(F)cn(C2CCCO2)c(=O)n1Cc1c(F)cccc1Cl (configuration not stated),-13,7,-1.1,-2,-6%,
O=C(O)c1cccc(Cn2c(Cl)c(/C=N/NC(=O)c3ccccc3)sc2=O)c1,-11,0,2.3,16,-1%,

# Next compounds follow.
SMILES,YopH inh,Mtb bLac sens,RecA intein inh,Arbovirus inh,Mtb growth,others
CN(CC(=O)Nc1cccc(F)c1)C(=O)/C=C/c1cc(Br)ccc1OC(F)F,/,1,-0.3,/,/,
COc1ccc(-c2nc(C)ncc2-c2ccc(Cl)cc2)c(O)c1,/,8,0.4,/,/,
Cc1ccc2oc(=O)c3cnn(CC(=O)Nc4cc(-c5cccc(F)c5)no4)c3c2c1,7,4,-3.2,-3,2%,
Cc1c(Cl)cccc1NC(=S)N1CCN(S(=O)(=O)c2cccs2)CC1,/,-6,6.3,8,1%,
Cc1ccc(CC(=O)Nc2cc(C)ccn2)cc1,/,1,0.3,/,/,
COc1ccccc1CNC(=O)Cc1cc(=O)[nH]c(=O)[nH]1,-36,2,-2.4,-2,73%,
COc1ccc(C(=O)Nc2cccc(/C(C)=N/NC(=O)c3ccc([N+](=O)[O-])c(C)c3)c2)cc1OC,-10,13,/,-1,3%,
COc1ccc(S(=O)(=O)N2c3ccccc3OCC2C(C)(C)C)cc1 (configuration not stated),/,-7,-8.2,-2,1%,
Cc1[nH]n(-c2ccccc2)c(=O)c1N=Nc1ccccc1,/,-2,5.5,17,4%,
Cc1cc(C(F)F)n2nc(C(=O)Nc3cccc(S(=O)(=O)N4CCOCC4)c3)nc2n1,/,-7,-1.2,/,/,
NS(=O)(=O)c1ccc(CCNC(=O)c2ccc(Cl)s2)cc1,/,-11,-2.5,/,/,
CCCn1nnc(NC(=O)c2cccc(OCC(C)C)c2)n1,-13,-9,1.8,-3,2%,
CCOc1[nH]n(-c2ccc(Cl)cc2)c(=O)c1C=Nc1ccc(C)cc1,-28,/,/,3,-1%,
COc1ccc(C2NC(=O)NC(C)=C2[N+](=O)[O-])cc1 (configuration not stated),/,5,-3.3,/,/,
O=C(/C=C/c1ccc(-c2ccccc2[N+](=O)[O-])o1)c1ccccc1,-16,15,13,-11,4%,
Cc1cc(C)n(-c2ccccc2C#N)n1,/,-9,-2.6,/,6%,
O=C(NC1CCCc2ccccc21)c1ccccc1Cl (configuration not stated),/,-2,/,3,6%,
Cc1cc(C)c2nc(N3CCCN(C(=O)c4cnccn4)CC3)c(C#N)cc2c1,-53,95,/,2,-4%,
CCN(CC)c1ccc2cc(C(=O)Nc3ccccn3)c(=O)oc2c1,-23,14,-126,-7,-1%,
CCc1nc(SCc2cccnc2)c(C#N)cc1C,0,-7,-1.0,6,-2%,
O=C(NCCO)/C(=C\c1ccc(Br)cc1)NC(=O)c1cccs1,-16,-2,-1.1,-7,1%,
COc1ccccc1CCC(=O)N1CCC(n2nccc2NC(=O)CC(C)C)CC1,/,-5,-1.5,/,/,
CCCn1nnc(NC(=S)NC(=O)/C=C/c2ccc(Cl)cc2)n1,/,4,5.0,/,3%,
Cn1c(N)c(S(=O)(=O)N2CCN(c3ccccc3)CC2)c(=O)n(C)c1=O,/,-4,-1.7,10,-7%,
Cc1ccccc1NC(=O)/C(=C/c1cccs1)NC(=O)c1ccco1,-43,-1,0.5,-3,-18%,
CCn1c2ccccc2c2cc(NC(=O)CSc3nnc(-c4cccc(F)c4)o3)ccc21,-13,84,-1.9,-25,8%,
Cc1ccc(C(=O)Nc2ccc(C(=O)N/N=C/c3ccncc3)cc2)cc1,/,-1,-0.5,-2,-4%,
O=C(Nc1ccsc1C(=O)O)c1cccc(C(F)(F)F)c1,/,6,-0.6,/,/,
CCOC(=O)CSc1nnnn1-c1cc(OC)ccc1OC,-46,5,-1.3,-6,-7%,
O=C(Nc1ccc(Cl)cc1C(=O)NCC1CCCO1)c1ccco1 (configuration not stated),-23,1,2.2,-1,4%,
CCOc1ccc(Cl)cc1S(=O)(=O)NC1CCCC1,/,-3,0.0,/,/,
CCOc1ccccc1/C=N/NC(=O)c1nnn(-c2nonc2N)c1CN1CCCC1,/,-3,-1.4,/,/,
Cc1ccc2c(c1)c1ncnc(N3CCOCC3)c1n2C,-35,-1,-3.1,1,/,
O=C(COn1nnc2ccc(Cl)cc21)NC12CC3CC(CC(C3)C1)C2,16,/,0.7,-1,9%,
Cc1c(NC(=O)Nc2ccccc2)c(=O)n(-c2ccccc2)n1C,/,-1,-1.0,/,/,
Cc1nnnn1/C(=C\c1ccccc1)C(=O)OCC(=O)NC(C)(C)C,-13,-4,2.3,-3,4%,

# Ordered by molar mass (low to high): part of the list above
SMILES,YopH inh,Mtb bLac sens,RecA intein inh,Arbovirus inh,Mtb growth,others
Cc1ccc2c(c1)c1ncnc(N3CCOCC3)c1n2C,-35,-1,-3.1,1,/,
CCOc1ccc(Cl)cc1S(=O)(=O)NC1CCCC1,/,-3,0.0,/,/,
O=C(Nc1ccsc1C(=O)O)c1cccc(C(F)(F)F)c1,/,6,-0.6,/,/,
Cc1c(NC(=O)Nc2ccccc2)c(=O)n(-c2ccccc2)n1C,/,-1,-1.0,/,/,
Cc1nnnn1/C(=C\c1ccccc1)C(=O)OCC(=O)NC(C)(C)C,-13,-4,2.3,-3,4%,
O=C(Nc1ccc(Cl)cc1C(=O)NCC1CCCO1)c1ccco1 (configuration not stated),-23,1,2.2,-1,4%,
CCCn1nnc(NC(=S)NC(=O)/C=C/c2ccc(Cl)cc2)n1,/,4,5.0,/,3%,
O=C(COn1nnc2ccc(Cl)cc21)NC12CC3CC(CC(C3)C1)C2,16,/,0.7,-1,9%,
Cn1c(N)c(S(=O)(=O)N2CCN(c3ccccc3)CC2)c(=O)n(C)c1=O,/,-4,-1.7,10,-7%,
O=C(NCCO)/C(=C\c1ccc(Br)cc1)NC(=O)c1cccs1,-16,-2,-1.1,-7,1%,
COc1ccccc1CCC(=O)N1CCC(n2nccc2NC(=O)CC(C)C)CC1,/,-5,-1.5,/,/,
CCOc1ccccc1/C=N/NC(=O)c1nnn(-c2nonc2N)c1CN1CCCC1,/,-3,-1.4,/,/,
CCn1c2ccccc2c2cc(NC(=O)CSc3nnc(-c4cccc(F)c4)o3)ccc21,-13,84,-1.9,-25,8%,

# Next part
SMILES,YopH inh,Mtb bLac sens,RecA intein inh,Arbovirus inh,Mtb growth,others
COC(=O)c1ccc2nc(NC(=O)CN3C(=O)CCC3=O)sc2c1,-39,-2,-0.2,17,-25%,
COc1ccc(C(CNC(=O)Nc2cccc(C)c2)N2CCN(C)CC2)cc1 (configuration not stated),/,-2,-4.1,/,/,
O=C(CSc1nc2ccccc2s1)NC(=O)NCc1ccco1,-31,2,5.2,13,-7%,
Cc1c(C(=O)CN2CCSCC2)c2ccccc2n1C,-13,-2,-1.9,7,-8%,
CCOc1ccc(C(=O)NC(C)(C)CC)cc1,/,12,1.6,-6,0%,
O=C(COc1cccc2ccccc12)N1CCN(c2ccccn2)CC1,-32,13,2.0,10,7%,
COc1ccc(OC)c(S(=O)(=O)N/N=C(/C)c2c[nH]c3ccccc23)c1,/,1,0.4,/,/,

# The list is partial; count on the stated rates, not on these rows.
